TRPML1 blocker – qHTS for Inhibitors of the Human Mucolipin Transient Receptor Potential 1 (TRPML1); actives 0.02% (n = 390,000); TRPML1-inducible cells, Ca2+ dye fluorescence, FDSS; active compounds read low; inhibition of EC80 agonist-evoked calcium signal; Mucolipin-1 (Homo sapiens), Q9GZU1; activity change, negative = inhibition, % (no concentration beside the values); in the data active means activity change below about -50%; inconclusive means about -30% to -50%; inactive means above about -30%;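 further: stimulus is agonist 54-4 at its EC80 concentration; on the % scale 0 is the no-effect control and ±100 the full control effect; compound concentration not given in the record; the text of the record puts the active cut at -80%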
Target sequence (Q9GZU1 whole entry, looked up): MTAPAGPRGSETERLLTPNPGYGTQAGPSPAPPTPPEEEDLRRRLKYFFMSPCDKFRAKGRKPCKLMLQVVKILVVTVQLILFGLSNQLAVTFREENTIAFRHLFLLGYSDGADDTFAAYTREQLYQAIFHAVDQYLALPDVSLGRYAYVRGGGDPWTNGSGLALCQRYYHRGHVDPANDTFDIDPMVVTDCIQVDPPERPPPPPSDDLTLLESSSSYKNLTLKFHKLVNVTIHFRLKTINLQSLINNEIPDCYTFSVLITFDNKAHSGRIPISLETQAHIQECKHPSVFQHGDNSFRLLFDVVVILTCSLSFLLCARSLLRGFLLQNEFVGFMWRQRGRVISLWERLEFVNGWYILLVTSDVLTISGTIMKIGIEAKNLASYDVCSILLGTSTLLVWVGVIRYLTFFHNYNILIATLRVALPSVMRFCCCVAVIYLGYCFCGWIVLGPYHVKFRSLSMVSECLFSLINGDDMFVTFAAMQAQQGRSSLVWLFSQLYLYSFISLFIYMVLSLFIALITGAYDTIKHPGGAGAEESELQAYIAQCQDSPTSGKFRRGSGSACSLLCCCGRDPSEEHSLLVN
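Calcium fluorescence in TRPML1-DL cells induced overnight with Tet: a 110 s read after compound pin addition, then a 110 s antagonist read after challenge with 54-4 at 4 uM final (EC80).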
PINK1 modulator – A Quantitative High throughput Screen to Identify Chemical Modulators of PINK1 Expression; PINK1 immunofluorescence, high-content cytometry, 24 h; Potency, µM (highest dose often 76.6 µM), without a hit: at the highest dose activation (PINK1 increase), hits mostly activators; actives 0.2% (n = 410,000); active = well fitted activation curve with a large enough effect; inconclusive = small, poorly fitted or top-dose-only effect; inactive = flat fitted curve, though single readings scatter; cell line not stated here;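 further: potency means the concentration at half of the fitted maximal effect; % of control where 0% means no effect; nearly all actives have a fitted effect of over 65% in size; a mitochondrial uncoupler was the plate control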
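Cells are seeded, rested 12 hours, then given compound at five concentrations or DMSO for 24 hours. After fixation, blocking and antibody staining, PINK1 amount and mitochondrial localization are scored; CCCP serves as control.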
D2 ag – Beta-Arrestin HTS for Positive Allosteric Modulators of the Human D2 Dopamine Receptor: Agonists; D(2) dopamine receptor (Homo sapiens), P14416; DiscoveRx PathHunter D2 beta-arrestin, luminescence, 90 min; 100% = 57 uM dopamine signal; activation, % (test concentration not listed); actives 0.084% (n = 360,000); AID 624465, 2012; in the data active = activation above about 40%; inconclusive = about 15% to 40%; inactive = below about 15%; further: compound concentration not given in the record; the text of the record calls up to 30% inactive
Target sequence (P14416 whole entry, looked up): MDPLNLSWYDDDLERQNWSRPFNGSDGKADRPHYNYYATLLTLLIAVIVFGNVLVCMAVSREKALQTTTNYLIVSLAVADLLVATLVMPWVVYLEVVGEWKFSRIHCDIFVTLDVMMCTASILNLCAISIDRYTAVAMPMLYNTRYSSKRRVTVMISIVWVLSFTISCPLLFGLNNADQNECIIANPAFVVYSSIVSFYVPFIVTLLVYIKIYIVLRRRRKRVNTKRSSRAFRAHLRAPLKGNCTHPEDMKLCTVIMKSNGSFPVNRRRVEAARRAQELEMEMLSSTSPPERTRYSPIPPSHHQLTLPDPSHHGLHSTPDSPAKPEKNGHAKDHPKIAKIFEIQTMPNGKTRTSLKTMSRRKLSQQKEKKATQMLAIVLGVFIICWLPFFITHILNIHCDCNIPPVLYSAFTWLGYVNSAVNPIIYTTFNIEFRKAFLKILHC
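DiscoveRx PathHunter D2 beta-arrestin cells (2,100/well) attached overnight, then compound-stimulated 90 min at 37 C in HBSS/10 mM HEPES/0.1% Tween-20 buffer; beta-galactosidase complementation read by luminescence after 1 h at ambient temperature. Dopamine 57 uM final (EC100) as control.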
TRPML1 ag – qHTS for Agonists of the Human Mucolipin Transient Receptor Potential 1 (TRPML1); Mucolipin-1 (Homo sapiens), Q9GZU1; TRPML1-expressing cells, Ca2+ dye fluorescence, FDSS; host cell line not named in the record; reference of the full effect not given here; activation, % (test concentration not listed); actives 0.12% (n = 410,000); AID 624414, 2012; in the data active = activation above about 50%; inconclusive = about 30% to 50%; inactive = below about 30%; further: 0% is about no effect; the text of the record puts the active cut at 80%
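Tet-induced TRPML1-DL cells, 1,500 per well, cultured overnight, were loaded with a no-wash Ca2+ dye for 45–90 min. Calcium fluorescence was recorded on the FDSS for 110 s after compound addition, before the EC80 agonist (4 uM 54-4) was added.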
D2 potentiator – Beta-Arrestin HTS for Positive Allosteric Modulators of the Human D2 Dopamine Receptor: Potentiators; D(2) dopamine receptor (Homo sapiens), P14416; DiscoveRx D2 beta-arrestin cells, luminescence, 90 min; 100% = 57 uM dopamine signal; potentiation, % (concentration not given with the values); actives 0.23% (n = 360,000); AID 624464, 2012; active = potentiation of 50% or more; inconclusive = 30% to 50%; inactive = 30% or less;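 further: compound concentration not given in the record; tested on top of an EC20 dose of dopamine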
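PathHunter D2 cells, attached overnight at 37 deg C, received compound in DMSO plus dopamine at EC20 (50 nM final) for 90 min at 37 deg C. Beta-arrestin recruitment was read as luminescence after 1 h with detection reagent at ambient temperature.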
Six1-Eya2 inh – qHTS Assay for Inhibitors of the Six1/Eya2 Interaction. Homeobox protein SIX1 (Homo sapiens) + Protein phosphatase EYA2 (Homo sapiens), …. AlphaScreen GST-Six1/His-Eya2 binding, biochemical; active compounds read low; control for the full effect not named in the record. activity change, % (concentration not given with the values). actives 0.56% (n = 360,000); in the data active = activity change below about -65%; inconclusive = about -30% to -65%; inactive = above about -30%; further: on the % scale 0 is the no-effect control and ±100 the full control effect
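GST-Six1 + His-Eya2 (5X stock: 250/500 nM); Tris pH 8.0, 300 mM NaCl, 0.05% BSA, 0.02% Tween 20; GSH donor/Ni acceptor beads; 1 h 37 °C dark; AlphaScreen readout.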
An asterisk follows results filed as active; ? = inconclusive; · = not tested or not shown; & = joins results of further samples; [ ] = dose if it differs, or a comment. This is a random part of the collection. About 1% of those tested had a hit in this group.

Under each structure: TRPML1 blocker	PINK1 modulator	D2 ag	TRPML1 ag	D2 potentiator	Six1-Eya2 inh
#1 CCOc1ccc(N2CC(C(=O)Nc3cc(OCC)c(N4CCOCC4)cc3OCC)CC2=O)cc1 (stereo unspecified)
→ 15	0.2%	-10	1.1	-25	-12
#2 COc1ccccc1C(=O)N1CCN(CCNC(=O)C(=O)Nc2ccc(Br)c(C)c2)CC1
→ -17	-0.3%	0.7	-0.5	-23	-2
#3 COc1ccccc1OCCn1cc(C#N)c2ccccc21
→ 13	1.5%	-0.9	0.1	0	-1
#4 Cc1ccc(-n2nc3ccc(NC(=O)c4oc5ccccc5c4C)cc3n2)cc1
→ 22	-0.6%	·	-0.7	·	·
#5 Cc1ccc(S(=O)(=O)N2C[C@H]3[C@H]4C(=O)N(c5ccccc5)C(=O)[C@H]4CC(=O)[C@H]3[C@@H]2c2ccccc2)cc1
→ -15	1.3%	-5.8	2.2	0	-3
#6 CC(C)NC(=O)N(C)C[C@H]1Oc2ccc(NC(=O)c3ccncc3)cc2C(=O)N([C@H](C)CO)C[C@@H]1C
→ -17	-0.6%	-4.4	0.7	-2	16
#7 O=C(COC(=O)c1ccc2ccccc2n1)c1ccccc1
→ -14	-0.2%	0.5	0.0	-6	4
#8 COc1cccc(NC(=O)c2sc3nc(C)c(C(=O)Nc4ccc(C)cc4C)c(-c4cccs4)c3c2N)c1
→ 36	-0.4%	·	5.5	·	·
#9 O=C(c1ccccc1)c1sc(N2CCCCCC2)nc1-c1ccccc1
→ -6	2.6%	-2.3	2.6	-21	37
#10 Brc1ccc(C=Nc2ccc3c(c2)OCCOCCOCCO3)s1
→ 0	-2.9%	-3.2	0.4	5	-6
#11 COc1ccc(Nc2nc(N)nc(CN3CCC(Cc4ccccc4)CC3)n2)cc1
→ -7	7.2%	-5.9	0.1	-10	-18
#12 O=C(CCN1C(=O)/C(=C\c2ccccc2)SC1=S)NCCCN1CCOCC1
→ 23	0.2%	0.0	1.0	-9	-8
#13 CCN(CC)CCn1c(NCc2ccccn2)nc2ccccc21
→ -1	0.0%[38.3 µM]	0.5	0.3	-16	3
#14 COc1ccc(NS(=O)(=O)c2ccc3oc(SC4CCOC4=O)nc3c2)cc1 (stereo unspecified)
→ -16	3.1%	2.3	0.5	6	2
#15 Cc1nn(-c2ccccc2)c(C)c1C(=O)OC/C(O)=C(\C#N)c1nc2ccccc2[nH]1
→ 9	-2.0%	1.5	2.0	7	-19
#16 CCc1nn(CC(=O)NCCOC)c(=O)c2cc3cc(F)ccc3n12
→ -6	0.1%	·	-0.1	·	·
#17 COC(=O)c1cc(OC)c(OC)cc1NC(=O)c1ccc(OC)c(OC)c1
→ -8	0.0%	-2.1	-0.4	14	-27
#18 Cc1ccc(S(=O)(=O)NC(C)(C)CSc2nncn2N)cc1
→ 28	-1.0%	-2.3	-1.0	1	0
#19 COc1ccc(/C=C2\SC(=O)N(CCNC(=O)Cn3cnnn3)C2=O)cc1
→ -1	1.8%[38.3 µM]	-1.6	-0.2	1	-3
#20 O=C(O)CSc1cccc[n+]1[O-]
→ 23	-1.4%	-1.3	0.4	0	5

The last four compounds of the section before are carried over, then new ones follow:
Under each structure: TRPML1 blocker	PINK1 modulator	D2 ag	TRPML1 ag	D2 potentiator	Six1-Eya2 inh
#17 COC(=O)c1cc(OC)c(OC)cc1NC(=O)c1ccc(OC)c(OC)c1
→ -8	0.0%	-2.1	-0.4	14	-27
#18 Cc1ccc(S(=O)(=O)NC(C)(C)CSc2nncn2N)cc1
→ 28	-1.0%	-2.3	-1.0	1	0
#19 COc1ccc(/C=C2\SC(=O)N(CCNC(=O)Cn3cnnn3)C2=O)cc1
→ -1	1.8%[38.3 µM]	-1.6	-0.2	1	-3
#20 O=C(O)CSc1cccc[n+]1[O-]
→ 23	-1.4%	-1.3	0.4	0	5
#21 O/N=C/c1ccc(-c2ccccc2OC(F)(F)F)o1
→ 12	-1.2%	-0.7	0.4	-4	-2
#22 COc1cc(CNC(=O)C2CC(O)CN2C(=O)Nc2ccccc2)cc(OC)c1OC (stereo unspecified)
→ -14	3.4%	-1.8	0.0	-2	-2
#23 Cc1cc(-c2c(C)[nH]n(-c3ccc(Cl)cc3)c2=O)n(-c2ccccc2)n1
→ 4	0.9%	-3.4	0.7	-6	-6
#24 Cc1ccc(C(=O)OCC(=O)NC(=O)Cc2ccccc2)c(O)c1
→ -6	3.7%	-2.7	0.7	-14	3
#25 CCOc1ccc(CC(=O)Nc2c(C(N)=O)oc3ccc(Br)cc23)cc1OCC
→ -7	4.6%	-0.5	0.9	-5	-1
#26 CCOc1ccc(CC(=O)Nc2nccs2)cc1
→ 26	0.4%	-2.0	2.0	-4	-2
#27 COC(=O)c1cc(-n2cccc2)ccc1N1CCOCC1
→ 6	0.4%	-15	-0.6	-2	-22
#28 COc1ccc(C(=O)Nc2ccc(F)cc2F)cc1OC
→ 40	1.8%	-2.1	2.8	-9	-2
#29 CCN(Cc1ccccc1)C(c1ccccn1)c1nnnn1C(C)(C)CC (stereo unspecified)
→ 28	-2.3%[38.3 µM]	2.7	-0.3	-2	6
#30 Cc1ccccc1-n1ncc2c1CC(C)(C)CC2NC(=O)c1cn[nH]c1C (stereo unspecified)
→ 10	4.1%	3.3	0.1	-6	6
#31 CC1=C(C(=O)OC(C)C)C(/C=C/c2ccccc2)NC(=O)N1 (stereo unspecified)
→ -5	0.5%	-2.2	-0.6	1	-1
#32 COc1ccc(NC(=O)Cn2c(=O)n(Cc3ccc4c(c3)OCO4)c(=O)c3ccc(C(=O)NC4CCCCC4)cc32)cc1
→ 25	0.2%	·	1.0	·	·
#33 C=CCNc1oc(-c2ccco2)nc1S(=O)(=O)c1ccccc1
→ -2	1.1%	-2.5	3.2	-20	5
#34 COc1cccc(-c2nc3c(c(=O)[nH]c(=O)n3Cc3ccccc3)n2CCO)c1OC(F)F
→ -16	0.9%	3.5	0.5	-5	-8
#35 O=C(COc1ccccc1)Nc1c(Cl)ccc2nsnc12
→ -19&9	0.5%&-0.2%	-2.5	1.8&0.9	-2	1
#36 CCOC(=O)COc1nc(Nc2ccccc2C)nc(N(C)C)n1
→ 1	-1.0%	0.3	0.2	-15	-8
#37 COC(=O)N1CCCCC1c1cc(C(=O)N2CCOCC2)no1 (stereo unspecified)
→ ·	0.2%	-4.6	-0.7	-6	2
#38 C=CCn1c(C)cc(C(=O)CSc2nnc(C3CC3)n2C2CC2)c1C
→ -12	-1.2%	3.4	0.1	2	-4
#39 Cc1cc(N)n(-c2ccccc2)n1
→ -1	-1.0%	-2.3	-0.1	-4	-1
#40 CCCc1cc(=O)[nH]c(SCC(=O)Nc2ccc(Br)cc2Br)n1
→ 17	3.1%	-19	-0.9	0	0
#41 CC(C)(C)n1nc2c(c1NC(=O)Cc1cccc3ccccc13)CS(=O)(=O)C2
→ -11	3.8%	0.8	0.2	3	-15
#42 COCCN(C(=O)CSc1nnc(-c2ccc(C)cc2)n1N)c1c(N)n(Cc2ccccc2)c(=O)[nH]c1=O
→ -7	-0.3%	-3.3	-0.2	-4	19
#43 Cc1[nH]c2ccccc2c1CN1CCN(c2ccccn2)CC1
→ 7	0.7%	3.1	-0.1	-17	-7
#44 CCOC(=O)c1sc(N)c(C#N)c1CSc1nnc(C2CC2)n1N
→ 1	0.5%[38.3 µM]	0.6	2.6	-4	-3
#45 CC1CCN(Cc2nnnn2CCCC(=O)NCCc2cnn(C)c2)CC1
→ 4	1.6%	3.6	-0.3	3	3
#46 O=[N+]([O-])c1ccc(Nc2ccc(N3CCOCC3)cc2)c([N+](=O)[O-])c1
→ 27	-1.9%	1.2	2.2	-4	-5
#47 O=C(NNC1=C(C(=O)C(F)(F)F)CCC1)c1ccccc1Cl
→ 3	-0.8%	-2.7	0.6	0	1
#48 COc1ccccc1NC(=O)N(C)C[C@H]1Oc2ncc(Br)cc2C(=O)N([C@H](C)CO)C[C@H]1C
→ 12	1.8%	6.9	1.8	12	10
#49 O=C(Cn1c(=O)nc(-c2ccccc2)c2cc(Cl)ccc21)NCc1ccc(Cl)cc1
→ -12	-0.3%	·	-0.7	·	·
#50 O=C(CN1C(=O)CCn2nc(-c3ccccc3)cc21)NCc1ccc(F)cc1
→ 0	-0.8%	·	-0.5	·	·
#51 CCOC(=O)C1CCN(C(=O)CCCOc2ccccc2)CC1
→ -3	·	-1.5	0.1	-10	5
#52 O=C(NCc1ccccn1)c1ccc(N2CCCC2)c([N+](=O)[O-])c1
→ 19	-0.2%	-2.0	-0.8	-2	-1
#53 COc1ccc(-n2cc(C(=O)NCc3ccccc3)c3ccccc3c2=O)cc1
→ 19	2.3%	·	2.8	·	·
#54 CC12CCC(=O)N1C(C(=O)Nc1ccc(F)cc1)CS2 (stereo unspecified)
→ -5	3.3%	0.2	0.4	3	8
#55 O=C1Nc2ccc(S(=O)(=O)N3CCCC3)c3cccc1c23
→ 12	-2.0%[38.3 µM]	-2.2	0.1	-2	-5
#56 O=C1CSC(c2ccccc2F)N1CCN1CCCCC1 (stereo unspecified)
→ -20	-3.3%	2.3	-0.6	-16	1
#57 O=C(NCCN1CCCCC1)Nc1ccc(Cl)cc1
→ -3	0.1%	8.6	0.1	-19	5
#58 COc1cc(NC(=O)C2CCN(S(=O)(=O)c3ccc4c(c3)oc(=O)n4C)CC2)cc(OC)c1
→ 35	4.8%	·	-0.2	·	·
#59 O=c1c2cn[nH]c2[nH]c(=S)n1-c1ccccc1
→ 6	2.2%	1.6	-0.2	-32	14
#60 COc1ccc(OC)c(S(=O)(=O)N2CCC(C(=O)NC(C)c3ccccc3)CC2)c1 (stereo unspecified)
→ -8	0.6%	1.7	2.6	-1	5
#61 O=C(Nc1ccc(F)cc1)Nc1cccc(Br)c1
→ 4	?	1.0	1.5	0	5
#62 O=C(OCc1cn([C@H]2CN(CC3CCCCC3)[C@@H](c3ccccc3)C[C@@H]2O)nn1)c1ccccc1
→ -20	1.5%	-8.1	0.1	4	-2
#63 Nc1ccccc1/C=C/c1ccccc1N
→ 4	5.4%	-3.6	-0.8	-5	9
#64 Cc1ccc(NC(=O)C2CCCN2C(=O)OC(C)(C)C)cc1C (stereo unspecified)
→ ·	0.6%	-3.3	·	4	2
#65 O=C1CCC(C(=O)OC(C(=O)Nc2ccc([N+](=O)[O-])cc2Br)c2ccccc2)=NN1 (stereo unspecified)
→ 36	0.6%	5.9	-0.2	2	-8
#66 COc1ccc(-c2nn(CCC#N)cc2C(=O)Nc2cccc(C(=O)O)c2)cc1[N+](=O)[O-]
→ 6	2.7%	4.2	0.1	-5	3
#67 CCc1ccccc1NC(=O)Nc1nnc(N(CC)c2ccccc2)s1
→ 2	3.0%	·	-0.3	·	·
#68 CCC(=O)Nc1ccc(SC#N)cc1C
→ -10	·	-7.8	1.4	-17	-15
